Bioassay records from PubChem BioAssay.
T cruzi repl = inhibitors of intracellular T. cruzi growth, primary screen, luminescence, NIH3T3 host cells; T. cruzi beta-gal in NIH3T3, 90 h; inhibition, % (concentration not given with the values); 300,000 compounds, 1.4% hits; AID 1885, 2009;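 active means mean inhibition across valid replicates above about 55%, limit read from the data; inconclusive means mean below that limit but half or more replicates reach it; inactive means mean below it, under half of replicates reach it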;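 further: signal also drops with host cell toxicity which is not excluded here; 0% = plate median of DMSO wells and 100% = zero luminescence signal; higher percent means less beta-gal luminescence so fewer parasites; stock transfer was 50 nL into about 50 µL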
UCH37 DUB inh = inhibitors of human UCH37 deubiquitinase, primary screen, biochemical, Ub-AMC cleavage, fluorescence; purified proteasome/UCH37; inhibition, % (no concentration beside the values); 330,000 compounds, 0.33% hits; Ubiquitin carboxyl-terminal hydrolase isozyme L5 (Homo sapiens), Q9Y5K5; AID 588478, 2011;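 active means mean of two replicates above 20%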;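 further: 0% = compound-free wells with enzyme and 100% = wells lacking proteasome; stock transfer was 100 nL into about 20 µL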
Target sequence (Q9Y5K5 whole entry, looked up): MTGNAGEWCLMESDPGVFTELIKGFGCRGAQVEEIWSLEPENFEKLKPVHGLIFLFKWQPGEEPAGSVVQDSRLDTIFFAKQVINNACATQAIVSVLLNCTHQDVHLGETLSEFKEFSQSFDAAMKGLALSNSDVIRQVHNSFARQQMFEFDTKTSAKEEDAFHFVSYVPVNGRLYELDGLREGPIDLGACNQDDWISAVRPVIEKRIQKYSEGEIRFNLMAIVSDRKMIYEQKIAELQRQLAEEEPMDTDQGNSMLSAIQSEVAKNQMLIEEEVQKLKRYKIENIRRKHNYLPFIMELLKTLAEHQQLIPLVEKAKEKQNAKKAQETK
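system = Proteasome-associated human UCH37 deubiquitinase | amount = 0.15 nM proteasome as dispensed | medium = pH 7.4 Tris-HCl (50 mM) with ovalbumin, ATP-MgCl2, DTT | incubation = 30 min preincubation with enzyme, 25 min cleavage at room temperature | detection = AMC fluorescence 355/460 nm | read-out basis = percent inhibition | controls = no-proteasome and no-compound wells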
A1 inh = caspase 3/7 activation in MEF A1-2A-BIM cells, primary screen, A1 inhibitor project, cell-based, luminescence, HTS | 330,000 compounds, 0.066% hits | caspase activation, % (test concentration not listed) | Caspase-Glo 3/7 luminescence, 3 h; percent of clofoctol response, vehicle zero;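 active means over half of replicate activation scores above 10%, or exactly half above 10 with the replicate mean above 10; inconclusive means replicate mean below 10 yet half the replicates above 10; inactive means over half of replicates below 10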;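 further: wells of about 30 µL received 50 nL stock; many hits fall short of the cut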
FGF22 binding = binders of human FGF22 protein, primary screen, FGF22 synaptogenesis inhibitor project, biophysical, thermal shift, single point. Fibroblast growth factor 22 (Homo sapiens), Q9HCT0. recombinant FGF22 thermal shift, SYPRO orange fluorescence; percent of sucrose octasulfate shift, DMSO zero. calls only at 9.99 µM. 340,000 compounds, 1.5% hits. AID 651658, 2012;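 active means melting point raised past a set limit in the mean and every replicate; inconclusive means no clear call; three in four hits are not shown here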
Target sequence (Q9HCT0 whole entry, looked up): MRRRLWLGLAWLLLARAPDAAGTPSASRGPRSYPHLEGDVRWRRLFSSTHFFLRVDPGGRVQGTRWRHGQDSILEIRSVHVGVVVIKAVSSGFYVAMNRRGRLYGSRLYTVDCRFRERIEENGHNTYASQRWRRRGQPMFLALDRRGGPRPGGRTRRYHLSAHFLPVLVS
Ecoli growth = E. coli growth inhibition, primary screen, OD600 | Escherichia coli growth, 23 h; stronger effect = lower value | OD600 absorbance (test concentration not listed) | 330,000 compounds, 0.21% hits;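 active means OD600 absorbance below the run mean of sample wells minus 3.6 SD, in any replicate, cut at about 0.56 in these data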;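 further: stock transfer was 300 nL into about 60 µL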
Beta apoptosis = inhibitors of cytokine-induced beta cell apoptosis, primary screen, luminescence. protection from apoptosis, % (test concentration not listed). AID 435005, 2010. 300,000 compounds, 0.8% hits. INS-1E cytokine-induced death, ATP luminescence, 48 h; percent of positive-control rescue, neutral wells zero;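 active means all replicates at 75% or more, or half of them and the mean; inconclusive means half reach 75% but not the mean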;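 further: 0% = cytokine-treated negative control wells and 100% = positive control rescue; higher means more ATP so stronger rescue from cytokine killing; wells of about 40 µL received 100 nL stock; the first replicate is given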
Ecoli rRNA inh = reduced GFP signal of wild-type E. coli, primary screen, bacterial rRNA inhibitor project, GFP/RFP fluorescence, OD600, single point. GFP signal change (wild-type ribosome), % (no concentration beside the values). AID 720706, 2013. E. coli WT GFP vs humanized-ribosome RFP mutants, 24 h; stronger effect = lower value; DMSO median 0, no signal -100. 350,000 compounds, 1.6% hits;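 active means significant combined selectivity score with lowered wild-type GFP, culture density cut under 30%, mutant RFP and density less affected; inactive means any of these conditions unmet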; further: one replicate is shown; some compounds called inactive have numbers as strong as hits
MLL AF4-AF9 inh = inhibitors of AF4 peptide binding to AF9, primary screen, biochemical, AlphaScreen, biotin-AF4 peptide, FLAG-AF9, single point; Protein AF-9 (Homo sapiens), P42568; inhibition, % at 10 µM; 350,000 compounds, 0.47% hits; AID 651704, 2012;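 active means every replicate reaching a set inhibition limit, whatever the replicate mean, cut at about 25% in these data; inconclusive means mean inhibition reaches that limit but some replicates miss it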;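 further: 0% = plate neutral control median and 100% = total signal loss; the record names both 10 and 1 µM as test concentration; the first replicate is given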
Target sequence (P42568 whole entry, looked up): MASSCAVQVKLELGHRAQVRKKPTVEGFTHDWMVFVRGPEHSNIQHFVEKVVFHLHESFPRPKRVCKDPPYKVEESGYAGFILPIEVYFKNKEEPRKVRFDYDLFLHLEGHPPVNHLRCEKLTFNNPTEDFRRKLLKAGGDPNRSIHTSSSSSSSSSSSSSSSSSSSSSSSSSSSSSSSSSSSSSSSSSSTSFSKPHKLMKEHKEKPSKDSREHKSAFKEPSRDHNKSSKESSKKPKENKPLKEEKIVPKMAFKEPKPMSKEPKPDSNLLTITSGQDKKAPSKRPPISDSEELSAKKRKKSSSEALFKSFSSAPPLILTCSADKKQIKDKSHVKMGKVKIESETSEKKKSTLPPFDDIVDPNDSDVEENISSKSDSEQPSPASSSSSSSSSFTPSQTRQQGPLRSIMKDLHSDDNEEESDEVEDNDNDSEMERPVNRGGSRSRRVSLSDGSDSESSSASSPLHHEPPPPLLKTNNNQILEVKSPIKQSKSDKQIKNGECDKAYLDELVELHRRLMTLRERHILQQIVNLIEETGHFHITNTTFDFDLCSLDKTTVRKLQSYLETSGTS
Ecoli rRNA inh OD600 = also measured in Ecoli rRNA inh; calls as there; OD600 change, %; measured here: OD600 growth;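 optical density of the mix in the first replicate; 0 = DMSO median and -100 = no signal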
Ecoli rRNA inh RFP = second read-out of Ecoli rRNA inh, no call of its own (marks repeat the call); RFP signal change, %; measured here: RFP humanized mutant strains;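 first replicate; 0 = DMSO median and -100 = no signal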
* = called active by the depositor; i = inactive; ? = inconclusive; . = not tested or not shown; + = active, no number. Some of the compounds tested; the hit share may differ from the screen's.

SMILES | T cruzi repl | UCH37 DUB inh | A1 inh | FGF22 binding | Ecoli growth | Beta apoptosis | Ecoli rRNA inh | Ecoli rRNA inh OD600 | Ecoli rRNA inh RFP | MLL AF4-AF9 inh
CSCCC(NC(=O)c1ccccc1)C(=O)N1CCN(C(=O)c2ccccc2)CC1 (stereo not given) | . | 3.8 | -0.3 | i | 0.68 | 6 | 6 | 11 | -0.3 | -1.1
CCN(C(=O)COC(=O)c1cccnc1)c1cccc2ccccc12 | . | -3.7 | -0.9 | i | 0.64 | -7 | -2 | -6 | 2.1 | -2.7
CCN(CC)C(=O)C1CCN(S(=O)(=O)c2ccc(C3CNC(=O)C3)cc2)CC1 (stereo not given) | -9 | -0.6 | ? | i | 0.64 | -2 | 7 | 9 | 0.2 | -2.8
CC(=O)c1c(C)[nH]c(C(=O)NCc2ccccn2)c1C | -1 | 1.6 | 0.2 | . | 0.71 | -8 | . | . | . | .
CC1CC(C)CN(C(=S)Nc2ccc(SC(F)F)cc2)C1 (stereo not given) | -58 | -2.8 | 0.5 | . | . | -16 | . | . | . | .
Cc1cccc(S(=O)(=O)Nc2nc3ccccc3nc2NCc2ccc3c(c2)OCO3)c1 | 8 | -44 | 0.5 | . | 0.72 | . | . | . | . | .
O=C(c1ccccn1)N1N=C2/C(=C/c3ccccc3)CCCC2C1c1ccccc1 (stereo not given) | -11 | -0.9 | 0.4 | i | 0.72 | 3 | 10 | 16 | 0.9 | 5.4
Cc1ccc2c(c1)C(c1ccc(N3CCOCC3)cc1)=NNC(c1cccs1)=N2 | 44 | -1.1 | -0.1 | . | 0.72 | . | . | . | . | .
Cc1cc(OCC(=O)NCCO)ccc1Cl | -2 | 1.6 | 0.8 | . | 0.65 | -3 | . | . | . | .
CCOC(CNC(=O)c1ccc2c(c1)ncn2-c1ccc(F)c(F)c1)OCC | -15 | -0.3 | 0.6 | i | 0.73 | -4 | 6 | 5 | -1.4 | 0.8
O=C1N=c2ccccc2=C1c1sc(=S)n(NC(=O)c2cccc(O)c2)c1O | -9 | 16 | . | + | 0.7 | . | 3 | 8 | -4.5 | 1.4
O=C(CN1CCOC1=O)N1CCCC(N2CCN(c3cccc(C(F)(F)F)c3)CC2)C1 (stereo not given) | 15 | -1.9 | 0.0 | i | 0.72 | -7 | 2 | 8 | -0.6 | -15
CC(C)NC(=O)CSc1nc2ccccc2n1CC(=O)N(C(C)C)C(C)C | 7 | 3.4 | . | i | 0.72 | . | 1 | -6 | -2.1 | -3.0
Cn1cccc1CNC(=S)Nc1ccccc1F | -7 | 5.4 | 0.6 | . | 0.7 | -4 | 6 | 14 | 0.9 | 5.4
O=C(NCC(=O)N1CC=C(c2ccccc2)CC1)c1ccco1 | -2 | 4.4 | 0.9 | i | 0.66 | -2 | -7 | -9 | 2.5 | 1.8
Cc1cccc(NC(=O)[C@H](C)NC(=O)[C@@H]2Cc3ccccc3CN2C(=O)OC(C)(C)C)c1 | -4 | 4.0 | -0.2 | i | 0.71 | -8 | -3 | -14 | 1.7 | 2.6
c1cc2c(cc1-c1[nH]ncc1CN1C[C@H]3CC[C@H]1C3)OCO2 | -3 | 1.9 | -0.5 | i | 0.68 | -10 | 12 | 11 | 1.6 | 2.3
O=c1[nH]c2ccccc2c2nc3ccccn3c12 | 17 | 1.4 | -4.0 | . | 0.68 | 19 | . | . | . | .
CCOC(=O)CNC(=O)CSc1nc2nc(C)c(Br)cc2[nH]1 | -20 | 10.0 | 0.9 | . | 0.75 | -1 | . | . | . | .
CCC(=O)NC(=S)Nc1ccc(NC(=S)NC(=O)c2ccc(C)cc2)cc1 | -14 | 4.3 | -0.3 | i | 0.7 | 9 | 0 | 5 | 2.1 | -0.3
O=C(c1cccs1)N1CCCC(c2nc3c(nnn3Cc3ccccc3)c(=O)[nH]2)C1 (stereo not given) | -1 | 2.8 | 0.2 | i | 0.73 | -1 | -7 | -11 | 0.9 | -0.4
COc1ccc(N2CCN(S(=O)(=O)c3ccc4c(c3)CC(C)N4C(=O)C3CC3)CC2)cc1 (stereo not given) | -10 | 1.6 | 0.2 | i | 0.65 | 4 | 11 | 4 | 2.4 | 0.2
Cc1ccc(N(Cc2cc3ccc(C)cc3[nH]c2=O)C(=O)c2ccco2)cc1 | 3 | -2.9 | -0.4 | i | 0.69 | -4 | 4 | -2 | -1.4 | 1.1
COc1cc(C(=O)NNC(=O)C2CSC3(C)CCC(=O)N23)cc(OC)c1OC (stereo not given) | . | 0.4 | 0.2 | i | 0.7 | -2 | -1 | 4 | -1.9 | 0.0
Cc1c(C(=O)N(Cc2ccccc2)Cc2cccs2)cnn1-c1ccc(Cl)cc1 | 43 | . | 0.6 | i | . | . | -21 | -21 | -1.9 | -0.6

Continuation:
SMILES | T cruzi repl | UCH37 DUB inh | A1 inh | FGF22 binding | Ecoli growth | Beta apoptosis | Ecoli rRNA inh | Ecoli rRNA inh OD600 | Ecoli rRNA inh RFP | MLL AF4-AF9 inh
O=C1CN(C(=O)CN2CCCC2)C(c2ccccc2)c2cc(Br)ccc2N1 (stereo not given) | -6 | 3.4 | 0.1 | . | 0.7 | -1 | . | . | . | .
Cc1csc(C(C)N(C)C(=O)CCc2nnc(CCc3ccccc3)o2)n1 (stereo not given) | -4 | 4.2 | 0.4 | i | 0.7 | 0 | 6 | -2 | -4.1 | -5.8
CCCCn1c(N)c(N(CCC(C)C)C(=O)COC(=O)Cc2ccc(Cl)cc2)c(=O)[nH]c1=O | . | 4.2 | . | i | 0.63 | . | -57 | -77 | -17 | -5.7
COc1cccc(OC)c1C(=O)Nc1ccc(C(=O)c2ccncc2)cc1 | -5 | 5.5 | -0.4 | i | 0.71 | . | 1 | 4 | 0.0 | 3.1
Cc1ccccc1C(=O)NCC(=O)NC1CC1 | . | 1.5 | 1.2 | i | 0.72 | -8 | 5 | 21 | 0.8 | 1.1
C[n+]1cnn2c1SCC1(COC1)C2 | -13 | 0.2 | 0.4 | . | 0.7 | -2 | . | . | . | .
CC(C)(C)c1ccc(-n2nc(C(N)=O)c(O)cc2=O)cc1 | -2 | 2.2 | 0.4 | i | 0.69 | . | 4 | -1 | 0.5 | -0.1
OC(CNCc1ccc(-c2ccccc2)cc1)c1ccccc1 (stereo not given) | 30 | 4.4 | 0.0 | i | 0.59 | 6 | -11 | -27 | 30 | -1.0
CCN(Cc1nc2ccccc2c(=O)[nH]1)C(=O)COc1ccccc1-c1ccccc1 | . | . | -0.7 | i | . | 5 | -37 | -69 | 3.7 | 2.1
O=C(CN(Cc1ccccc1)C(=O)CCC(=O)Nc1nccs1)NCc1ccccc1 | 7 | 6.3 | -0.2 | i | 0.7 | -5 | 3 | 9 | -2.4 | 43*
COc1ccc(Nc2nc(C)cc(C)c2C#N)c(OC)c1 | 2 | -85 | 0.8 | i | 0.7 | -1 | -2 | -5 | -3.4 | -4.2
O=C(CCCOc1ccc(Cl)cc1Cl)Nc1cc(S(=O)(=O)N2CCOCC2)ccc1N1CCOCC1 | . | 5.5 | . | i | 0.66 | . | 4 | 5 | 5.2 | 5.8
Oc1c(Br)cc(C=Nc2ccc3nc(-c4ccccc4)[nH]c3c2)c(O)c1Br | -24 | -82 | 0.8 | i | . | 9 | -3 | 12 | 6.3 | 3.2
CON(C)c1nc(C2CCCCC2)c2cc(C)ccc2n1 | -2 | 0.8 | 1.6 | i | 0.66 | 11 | -23 | -22 | -7.4 | -2.3
O=C1CCC2=C(CCCC2=O)N1 | -8 | 5.6 | 0.5 | . | 0.69 | -7 | 20 | 12 | -0.3 | -0.5
CCCCNC(=S)NCCN1CCCCC1 | -5 | 1.3 | 0.5 | . | 0.71 | -2 | . | . | . | .
CC1Sc2ccc(S(=O)(=O)N3CCC(C(=O)NCC(C)c4ccccc4)CC3)cc2NC1=O (stereo not given) | 2 | 0.8 | -1.0 | i | 0.67 | 14 | -2 | -3 | -1.2 | -11
COc1ccc(N(CC(=O)Nc2cccc(N(C)S(C)(=O)=O)c2)S(=O)(=O)c2ccc(C)cc2)cc1 | 11 | 6.5 | 0.4 | i | 0.73 | 5 | -8 | -21 | -1.4 | 1.2
COc1ccc(CN2CCN(C(C)C)C(CCO)C2)cc1Cn1cncn1 (stereo not given) | 6 | 0.9 | 0.6 | . | 0.72 | 0 | 22 | 24 | 1.4 | -0.3
CN(C)S(=O)(=O)c1ccc(NC(=O)c2cc3ccccc3o2)cc1 | 32 | 1.3 | -0.2 | . | 0.62 | 3 | . | . | . | .
CC(=O)c1cccc(OCC(=O)N(C)CC(=O)NCc2ccco2)c1 | . | 3.6 | -0.7 | i | 0.7 | 2 | 3 | 5 | 1.1 | -0.4
CCOC(=O)CC1C(=O)NCCN1C(=O)Nc1ccccc1 (stereo not given) | -19 | 2.2 | -0.2 | . | 0.77 | 0 | . | . | . | .
COc1c(Cl)cc(-c2noc(C)c2C(=O)NC(C)C)cc1Cl | 1 | 6.0 | 0.0 | i | 0.76 | 7 | 0 | 1 | 1.8 | 5.1
CCOc1ccc(NC(=O)CSc2ncn[nH]2)cc1 | 11 | -1.4 | -2.7 | i | 0.71 | . | 9 | 6 | 2.3 | -1.1
CC1(C)C(O)=C(c2nc3ccccc3[nH]2)C(=N)N1c1ccccc1 | -14 | -13 | ? | . | 0.66 | 26 | . | . | . | .
COc1ccc(N2C(=O)CC(c3ccccc3)CC2=O)cc1 | . | 0.6 | 0.7 | i | 0.68 | -10 | 6 | 4 | 2.4 | -0.5
N#Cc1c(N)nc2c(c1-c1ccncc1)CCCC2 | -4 | -50 | 0.6 | . | 0.68 | 3 | . | . | . | .
COc1ccccc1-c1cc(-c2ccccc2)nc(SCC(=O)O)c1C#N | 4 | -4.7 | 0.4 | i | 0.66 | -1 | -12 | -15 | -0.3 | 2.7

By substructure, those above with a thiophene ring, fused or not
SMILES | T cruzi repl | UCH37 DUB inh | A1 inh | FGF22 binding | Ecoli growth | Beta apoptosis | Ecoli rRNA inh | Ecoli rRNA inh OD600 | Ecoli rRNA inh RFP | MLL AF4-AF9 inh
Cc1ccc2c(c1)C(c1ccc(N3CCOCC3)cc1)=NNC(c1cccs1)=N2 | 44 | -1.1 | -0.1 | . | 0.72 | . | . | . | . | .
O=C(c1cccs1)N1CCCC(c2nc3c(nnn3Cc3ccccc3)c(=O)[nH]2)C1 (stereo not given) | -1 | 2.8 | 0.2 | i | 0.73 | -1 | -7 | -11 | 0.9 | -0.4
Cc1c(C(=O)N(Cc2ccccc2)Cc2cccs2)cnn1-c1ccc(Cl)cc1 | 43 | . | 0.6 | i | . | . | -21 | -21 | -1.9 | -0.6
